High-throughput results: PubChem BioAssay, PCMD
Calb biofilm kill = clotrimazole potentiators killing C. albicans biofilm, primary screen, 4-compound mixtures; inhibition, % at 7.6 µM; C. albicans biofilm persisters + clotrimazole, fluorescence viability; primary screen in compound mixtures of four per well; 120,000 tested, 0.02% active; AID 1242, 2008;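 active = inhibition above 30.3% in the primary screen of four-compound pools, then above 30% when the compound was retested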;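 note: compounds exposed to preformed 24 h biofilms for 48 h; the number belongs to the whole pool; some results filed as inactive read as strong as hits; inactives centre near 12; 0% = biofilm with clotrimazole alone and 100% = kill control; retested singly at about 60 µM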
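Incubation: 24 h biofilm formation, then 48 h compound exposure, 37 °C | Material: C. albicans biofilms | Buffer or medium: RPMI/MOPS medium, pH 7.0 | Measured by: 2-h Alamar Blue fluorescence, 535/590 nm excitation/emission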
Numbers without * were called inactive. Only part of the results is shown; the hit share may differ from the screen's.

SMILES	Calb biofilm kill
CCC[n+]1c(C)sc2c3c(ccc21)CCCC3	3.6
O=C(CNCc1ccco1)Nc1ccc(Oc2ccccc2)cc1	13.5
Cc1ccc(C(C)C)c(OCC(=O)N/N=C/C2CCCCC2)c1	6.9
CC(C)OCCCNC1=C(Cl)C(=O)c2ccccc2C1=O	5.3
c1ccc(OCc2cc(-c3ccccc3)no2)cc1	7.8
Cc1ccc(C2C(C#N)=C(N)Oc3n[nH]c(-c4cccnc4)c32)o1 (stereo not drawn)	19.7
CCCN1CCN(C(=S)NCc2ccc(Cl)cc2)CC1	0.8
O=C1C(Cc2cccc([N+](=O)[O-])c2)SC(=Nc2ccccc2)N1c1ccccc1 (stereo not drawn)	6.7
CC(c1ccon1)N(C)Cc1cn(Cc2ccccc2)nc1-c1ccc2c(c1)OCO2 (stereo not drawn)	-3.3
COc1ccc(C(=O)Nc2ccc(S(=O)(=O)Nc3cc(C)nc(C)n3)cc2)cc1OC	14.5
OCC1(Cc2ccc(Cl)cc2)CCN(CC2CC=CCC2)CC1 (stereo not drawn)	14.6
Cc1cc(Cl)ccc1N1C(=O)CC(NNC(=O)c2cccnc2)C1=O (stereo not drawn)	2.9
O=C(Nc1cccc([N+](=O)[O-])c1)c1cc2ccccc2cc1O	14.6
O=C(N/N=C/c1cccc([N+](=O)[O-])c1)c1ccncc1	15.6
CN1CCc2nc(SC(C(=O)O)c3ccccc3)c(C#N)c(-c3cccs3)c2C1 (stereo not drawn)	14.1
O=C1CS/C(=C/C(=O)c2cccc(Cl)c2)N1	17.3
CCOc1cc(NC(=S)NCc2ccco2)c(OCC)cc1NC(=O)CC	20.6
c1ccc2c(SCc3cn4ccccc4n3)nncc2c1	1.1
Cc1cccc(-n2c(SCC(N)=O)nc3c(c2=O)C2(CCCC2)Cc2ccccc2-3)c1	6.5
Cc1c(CNCCCc2ccccc2)c(C(=O)O)c(C)n1Cc1ccccc1	18.1
O=C(CN1CCCc2ccccc21)N/N=C/c1c(O)ccc2ccccc12	11.2
O=c1c2oc3ccccc3c2ncn1Cc1ccc(Cl)cc1	7.6
C[C@]12CCC(=O)C=C1CC[C@@H]1[C@@H]2C(=O)C[C@@]2(C)[C@H]1CC[C@]2(O)C(=O)CO	4.0
O=C(Cc1ccc(Cl)cc1)NNS(=O)(=O)c1ccc([N+](=O)[O-])cc1	6.5

Ordered by molecular weight (lowest first): part of the list above
SMILES	Calb biofilm kill
Cc1ccc(C(C)C)c(OCC(=O)N/N=C/C2CCCCC2)c1	6.9
Cc1ccc(C2C(C#N)=C(N)Oc3n[nH]c(-c4cccnc4)c32)o1 (stereo not drawn)	19.7
O=C(CN1CCCc2ccccc21)N/N=C/c1c(O)ccc2ccccc12	11.2
CCOc1cc(NC(=S)NCc2ccco2)c(OCC)cc1NC(=O)CC	20.6
Cc1cccc(-n2c(SCC(N)=O)nc3c(c2=O)C2(CCCC2)Cc2ccccc2-3)c1	6.5

Next records
SMILES	Calb biofilm kill
Cc1cc(F)ccc1S(=O)(=O)Nc1ccccc1C(=O)NCc1cccnc1	18.4
CCOc1ccc(NC(=O)CC(c2ccccc2)c2ccc(F)cc2)cc1 (stereo not drawn)	-4.4
N#Cc1c(Nc2ccccc2)c(/C=N/NCCO)c[nH]c1=O	-1.1
O=C(Nc1nc2ccccc2s1)c1cccc(S(=O)(=O)N2CCc3ccccc32)c1	10.2
O=C(O)CC1S/C(=N/N=C/C=C/c2ccccc2[N+](=O)[O-])NC1=O (stereo not drawn)	6.0
COc1ccc(-c2[nH]ncc2CN(C)Cc2cccnc2)c(OC)c1	7.8
CN(NC(=O)c1ccccc1)c1ncc(C(F)(F)F)cc1Cl	32.4
O=C(Nc1cc(Cl)cc(Cl)c1)C(c1ccccc1)N1CCCCC1 (stereo not drawn)	6.8
Cc1ccc2c(c1)C(c1ccccc1)C(=O)O2 (stereo not drawn)	11.1
O=C(NCc1cccnc1)c1ccc([N+](=O)[O-])cc1	9.6
CC(O)Cc1cn([C@@H](CCCCN)C(=O)N2CCNCC2)nn1 (stereo partly drawn)	18.6
COc1ccccc1NC(=S)N1CCC(NC(=O)c2ccco2)CC1	5.3
CC(=O)NC1=NN(C(C)=O)C(C)(c2ccc(C)o2)S1 (stereo not drawn)	27.2
COc1ccc(C(=O)NCC(=O)OCC(=O)c2cc(OC)c(OC)c(OC)c2)cc1OC	10.4
COc1ccccc1/C=C/CN1CCCC(CO)(Cc2cccc(Cl)c2)C1 (stereo not drawn)	4.8
Cc1csc(SC(C)C(=O)NCC(=O)Nc2ccc(F)c(F)c2F)n1 (stereo not drawn)	7.8
COc1ccc(N2CCN(Cc3nc4cc(Cl)ccc4c(=O)[nH]3)CC2)cc1	11.3
O=Cc1ccccc1-n1cncn1	-18.6
Cc1ccc(S(=O)(=O)N2CCOCC2)cc1NC(=O)CN1CCN(c2ccc(O)cc2)CC1	11.3
CC(=O)NC(=S)Nc1cc(C(=O)O)ccc1Cl	24.8
COc1ccccc1C(C)NCC(=O)Nc1c(F)cccc1F (stereo not drawn)	1.5
Cn1cnc([N+](=O)[O-])c1Oc1cccc(O)c1	0.7
Cc1cccc(N(C(=O)c2nsc(Cl)c2Cl)C(C(=O)NC2CCCC2)c2ccc(O)cc2)c1C (stereo not drawn)	12.4
O=C(NC1CCCC1)NS(=O)(=O)c1ccccc1Cl	7.6
CCN1CCN(C(=O)C2(NC(=O)Nc3ccccc3Cl)CCCCC2)CC1	13.2
O=C(COc1ccc(Br)cc1)NNC(=S)NC(=O)c1ccccc1[N+](=O)[O-]	-5.1
CC(=O)N1CCN(S(=O)(=O)c2cccc(C(=O)OCC(=O)NC(=O)c3cccn3C)c2)CC1	11.7
Fc1cccc(Cc2noc(CN3CCC(c4ccncc4)CC3)n2)c1	7.1
COc1ccc(N2C(=S)NC3CS(=O)(=O)CC32)cc1 (stereo not drawn)	-0.2
Cc1ccc(NC(=O)COC(=O)c2ccc(OCc3c(C)noc3C)cc2)cc1S(=O)(=O)N1CCOCC1	10.9
O=C(NCCSc1ccc(Br)cc1)c1ccccc1	13.4
O=C1OC2(O)C3C4C=CC(C4)C3C(=O)N2c2ccccc21 (stereo not drawn)	22.4
O=C(COc1ccc(C(=O)O)cc1)Nc1cccc(C(F)(F)F)c1	15.1
Cc1cc(C)n(CCNc2nc3nonc3nc2N2CCCCC2)n1	8.3
COc1ccc(C(=O)CSc2ccccc2C(=O)O)cc1	14.3
Cc1cccc(N2CCN(C(=O)c3ccccc3NC(=O)C3CCCCC3C(=O)O)CC2)c1 (stereo not drawn)	19.1
O=C(c1csc(Nc2cccc3ccccc23)n1)N1CCCC1	17.1
CN(CC(=O)Nc1cc(S(=O)(=O)N2CCCC2)ccc1Cl)Cc1cccs1	16.6
COc1ccc(/C=N/n2cnn(Cc3ccccc3Cl)c2=S)cc1OC	-5.6
N#C/C(C(=O)N1CCOCC1)=C1/SC(Cc2ccc(F)cc2)C(=O)N1c1ccccc1 (stereo not drawn)	-4.0
COc1ccc(Cl)cc1NC(=S)N(Cc1ccc(C(=O)O)cc1)Cc1ccc(OC)c(OC)c1	17.2
CC(C)C(=O)NNC(=O)CN1CCN(c2nc(-c3ccccc3)cs2)CC1	6.9
COc1ccc(/C=C/C(=O)OCC(=O)NCCC2=CCCCC2)cc1S(=O)(=O)N1CCOCC1	14.9
O=C(COC(=O)COc1ccccc1)Nc1cccc([N+](=O)[O-])c1	13.5
CCO[C@H]1OC(C(=O)Nc2ccccc2)=C[C@@H](c2csc3ccccc23)[C@@H]1CCCO	11.2
COC(=O)Cn1c(C(=O)N2CCCC2)cc2c1C[C@H]1CN(C(=O)c3ccccc3)[C@@](Cc3ccc(F)cc3)(C(=O)OC)[C@@H]21	7.2
O=[N+]([O-])c1cc(-c2ncccn2)c([N+](=O)[O-])s1	12.2
COc1ccc(OC)c(-c2nc(CN(C)C(C)c3ccncn3)c(C)o2)c1 (stereo not drawn)	10.9
COC(=O)c1scc(C)c1N1C(=O)c2ccccc2C1=O	19.8
CCCCCn1cnc2c(=S)nc(N)[nH]c21	7.9
CCc1ccc2nc(Nc3ncc(C(C)=O)c(C)n3)nc(C)c2c1	4.4
CCN1/C(=C\C=C2\C(=O)N(c3ccccc3)C(=S)N2C)Sc2ccccc21	17.8
Cc1nn(C)c(Oc2ccccc2)c1CCNC(=O)C(C)(C)C	12.2
CCOC(=O)CN/C=C(\C#N)c1ccccc1	15.3
Cc1ccc(C)c(NC(=O)CCCCCCCCCCC2COCCO2)c1 (stereo not drawn)	14.2
COc1cc(C(=O)O/N=C(\N)c2cccc([N+](=O)[O-])c2)cc(OC)c1OC	16.7
CCN1CCN(CCOc2ccc(Br)cc2C)CC1	6.1
O=C(NCc1ccccn1)c1ccc(Cl)c(S(=O)(=O)N2CCCCC2)c1	10.2
Cc1sc(-c2ccccn2)nc1OC(=O)c1ccc(F)cc1F	-6.1
O=C(CSc1ccc2ccccc2c1)NC1CCCc2ccccc21 (stereo not drawn)	3.8

The list continues.
SMILES	Calb biofilm kill
NC(=O)C1(N2CCCCC2)CCN(C(=S)NCCc2ccccc2)CC1	2.7
COc1ccccc1/C=C/C(=O)/C=C/c1ccccc1O	15.1
CCC(=O)Nc1ccc(C(=O)CSc2nnc(-c3ccccc3F)n2C2CC2)cc1	-8.8
Cc1nccn1CCCNC(=O)CC1C(=O)NCCN1Cc1ccc(Cl)c(F)c1 (stereo not drawn)	-13.1
CCOC(=O)N1CC(=O)Nc2ccc(Br)cc2C1c1ccccc1 (stereo not drawn)	25.7
O=C(CN1C(=O)/C(=C\c2cccc(Cl)c2)Oc2ccccc21)N1CCN(c2ccccn2)CC1	9.9
COc1ccc(NC(=O)[C@@H](NC(=O)c2ccccc2)C(C)C)cc1S(=O)(=O)N1CCCCC1	13.7
Cc1cccc(OCCn2cnc(Cl)c2Cl)c1	17.3
COCCCN1C(=O)CC(C(=O)OC)=C1C	15.3
COc1ccc(C)cc1N(CC(=O)N/N=C/c1ccc2c(c1)OCO2)S(C)(=O)=O	9.4
O=C(COC(=O)/C=C/c1ccco1)Nc1ccc(F)cc1Cl	14.8
C=C(C)c1cccc(C(C)(C)NC(=O)N2CCN(c3ccc(OC)cc3)CC2)c1	11.1
O=[N+]([O-])c1ccc(-c2ccc(/C=N/Nc3nc(NCc4ccccc4)nc(N4CCOCC4)n3)o2)cc1	10.3
CC1CCN(C(=O)CCCC(=O)O)CC1	10.1
O=C1C2C3c4ccccc4C(c4ccccc43)C2C(=O)N1c1cccnc1 (stereo not drawn)	13.9
CCOC(=O)C(NC(=O)Nc1ccc(Cl)cn1)(Oc1ccccc1)C(F)(F)F (stereo not drawn)	17.4
Nc1cccc(/C=C/c2ccncc2)c1	14.8
NC(=O)CSc1nnc(COc2ccccc2)n1N	1.8
CCC1(C)OC(=O)NN(c2ccc(C)cc2)C1(C)O (stereo not drawn)	7.3
CCOc1ccc(NC2OC(CO)C(O)C(O)C2O)c([N+](=O)[O-])c1 (stereo not drawn)	12.0
O=C(O)c1ccc(CS(=O)(=O)Cc2ccccc2F)o1	10.8
Nc1[nH]c(=O)[nH]c(=O)c1N=Nc1cccc(Cl)c1	25.7
O=C(CN1CCN(c2ccc(F)cc2)CC1)c1cccs1	13.6
Cc1cc(C(=O)CN2C(=O)NC(CC(C)C)C2=O)c(C)n1-c1ccccc1F (stereo not drawn)	6.4
Cc1cc(=O)oc2ccc(OC(C)C(=O)O)cc12 (stereo not drawn)	18.2
O=C(NC1CCCCCC1)C1CCN(S(=O)(=O)c2cnc[nH]2)CC1	9.8
OCCN1CCN(C(=S)Nc2ccc(SC(F)F)cc2)CC1	17.8
CCn1nnnc1SCC(=O)c1ccc(C)cc1C	3.0
Cc1nnc2sc(SCC(=O)Nc3ccc(Br)cc3)nn2c1=O	13.3
COc1cccc(Oc2ccc(C(F)(F)F)cc2NC(=O)c2cccc(F)c2)c1	18.8
O=C(O)c1ccc(N=Cc2c(O)ccc3oc4c(c23)CCCC4)cc1	25.3
Cn1ncc(Cl)c1C(=O)NCc1ccco1	3.1
CCOC(=O)c1cc(-c2cccc([N+](=O)[O-])c2)n[nH]1	1.2
O=[N+]([O-])c1cccc(/C=N\N=C2c3ccccc3-c3ccccc32)c1O	-3.3
CCOC(=O)C1(Cc2ccccc2)CCN(C2Cc3ccccc3C2)CC1	23.4
C=CCNS(=O)(=O)c1cccc(C(C)=O)c1	12.8

For reference, 7 of the compounds above.
SMILES	Calb biofilm kill
Cc1cc(=O)oc2ccc(OC(C)C(=O)O)cc12 (stereo not drawn)	18.2
O=C(NC1CCCCCC1)C1CCN(S(=O)(=O)c2cnc[nH]2)CC1	9.8
OCCN1CCN(C(=S)Nc2ccc(SC(F)F)cc2)CC1	17.8
CCn1nnnc1SCC(=O)c1ccc(C)cc1C	3.0
Cc1nnc2sc(SCC(=O)Nc3ccc(Br)cc3)nn2c1=O	13.3
COc1cccc(Oc2ccc(C(F)(F)F)cc2NC(=O)c2cccc(F)c2)c1	18.8
O=C(O)c1ccc(N=Cc2c(O)ccc3oc4c(c23)CCCC4)cc1	25.3

(further entries)
SMILES	Calb biofilm kill
CCCCCc1cc(=O)oc2c(C(CCN3CCN(c4ccccc4)CC3)c3ccc(N(C)C)cc3)c(OC)cc(OC)c12 (stereo not drawn)	14.7
CCCCOC(=O)Oc1ccc2c(=O)c(Oc3cccc(C)c3)coc2c1	0.6
CN(C)c1ccc(CNC(=O)C2CCC(CNc3c(N4CCCCC4)c(=O)c3=O)CC2)cc1 (stereo not drawn)	9.3
c1ccc(CN=C2NN=C(c3ccccc3)CS2)cc1	5.6
